# Source: PubChem
# gsp antagonist: antagonizes gsp, the McCune-Albright syndrome mutation; gsp-mutant cells, cAMP HTRF, 30 min; control for the full effect not named in the record; Potency, µM (series often up to 76.9 µM), inactives show top-dose activity change, negative = inhibition, usual class: inhibitors; 340,000 tested, 0.4% active; AID 624288; active = falling curve of any shape with a large fitted effect; inconclusive = falling curve, mostly with a smaller effect; inactive = flat or rising curve; cell line not stated here;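 also: intracellular cAMP measured with PDE inhibitor Ro 20-1724 present during compound exposure; potency is read from the fitted curve at half-maximal effect; % is scaled to controls: 0 for no effect and ±100 for the full control effect; nearly all actives have a fitted effect of over 65% in size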
#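 G418-selected cells were plated in DMEM/10% FBS for 16-24 h at 37C, then treated with compounds plus the PDE inhibitor […] (300 uM solution added) for 30 min at 37C. Intracellular cAMP was measured by HTRF after 30 min lysis at room temperature.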
# gsp ag: gsp mutant agonism; gsp mutant cells, cAMP HTRF, 30 min; control for the full effect not named in the record; Potency, µM (titrated, usually from 76.9 µM), inactives show at the highest dose activation (cAMP increase), most hits filed as activators; 340,000 tested, 0.13% active; active = well fitted activation curve with a large enough effect; inconclusive = small, poorly fitted or top-dose-only effect, or another doubt; inactive = no such curve, though single readings can be large or run the other way; cell line not stated here;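 also: phosphodiesterase inhibitor Ro 20-1724 added with compounds to block cAMP breakdown; potency is read from the fitted curve at half-maximal effect; nearly all actives have a fitted effect of over 60% in size; about a fifth of the inactives were tested at one dose only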
#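 Cells stably selected in G418 were plated at 2000/well, grown 16-24 hr, then given compounds in DMSO with the PDE inhibitor […] (300 uM solution added) for 30 min at 37C; cAMP was read by HTRF.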
# TRPML1 inh: inhibitors of human TRPML1 channel; AID 624415; 390,000 tested, 0.02% active; Q9GZU1; activity change, negative = inhibition, % (concentration not given with the values); TRPML1-inducible cells, Ca2+ dye fluorescence, FDSS; active compounds read low; inhibition of EC80 agonist-evoked calcium signal; in the data active means activity change below about -50%; inconclusive means about -30% to -50%; inactive means above about -30%;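 also: stimulus is agonist 54-4 at its EC80 concentration; % is scaled to controls: 0 for no effect and ±100 for the full control effect; the text of the record puts the active cut at -80%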
# Target sequence (Q9GZU1 whole entry, looked up): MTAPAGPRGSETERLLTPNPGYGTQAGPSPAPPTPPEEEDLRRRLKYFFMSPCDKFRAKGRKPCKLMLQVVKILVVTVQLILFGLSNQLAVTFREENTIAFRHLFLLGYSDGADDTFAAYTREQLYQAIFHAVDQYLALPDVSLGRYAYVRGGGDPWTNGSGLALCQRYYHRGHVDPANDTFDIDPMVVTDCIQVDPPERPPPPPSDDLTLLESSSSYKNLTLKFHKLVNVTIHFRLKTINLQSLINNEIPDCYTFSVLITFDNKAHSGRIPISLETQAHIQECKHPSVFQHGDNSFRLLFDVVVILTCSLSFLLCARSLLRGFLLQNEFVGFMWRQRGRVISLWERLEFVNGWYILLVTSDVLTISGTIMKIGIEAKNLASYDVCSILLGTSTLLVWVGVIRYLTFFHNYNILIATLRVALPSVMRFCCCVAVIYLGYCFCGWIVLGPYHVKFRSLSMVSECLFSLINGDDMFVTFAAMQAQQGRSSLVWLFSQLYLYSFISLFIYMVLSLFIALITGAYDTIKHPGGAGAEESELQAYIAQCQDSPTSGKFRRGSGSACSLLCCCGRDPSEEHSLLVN
#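 TRPML1-DL cells, Tet-induced overnight (~16 h, 37 °C) at 1,500 cells/well, were loaded with Ca8 no-wash dye plus quencher for 45-90 min at room temperature. Compounds were pinned during FDSS kinetic reading; agonist 54-4 at EC80 (4 uM final) then added.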
# ClpP mod: qHTS Assay for Activators of ClpP. ATP-dependent Clp protease proteolytic subunit (Bacillus subtilis (strain 168)), P80244. purified B. subtilis ClpP, FRET peptide cleavage, 20 min. Potency, µM (top dose mostly 57.5 µM), for inactives: top-dose activity change, negative = active. 340,000 tested, 1.9% active. AID 651965, 2013; active = well fitted falling curve with a large enough effect; inconclusive = small, poorly fitted or top-dose-only effect; inactive = no such curve, though single readings can be large or run the other way; also: potency is read from the fitted curve at half-maximal effect; the source files actives as falling curves though it sought activators and does not explain the sign; nearly all actives have a fitted effect of over 65% in size; many hits overshoot -100%
# Target sequence (P80244 whole entry, looked up): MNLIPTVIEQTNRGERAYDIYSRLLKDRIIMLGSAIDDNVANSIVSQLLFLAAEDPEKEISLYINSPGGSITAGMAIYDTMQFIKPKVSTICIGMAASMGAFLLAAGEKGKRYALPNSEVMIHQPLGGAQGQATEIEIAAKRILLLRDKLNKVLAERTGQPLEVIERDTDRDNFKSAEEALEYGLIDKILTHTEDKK
#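 ClpP 10 microg/mL final, pH 8 Tris/KCl buffer with BSA, glycerol, Tween-20; compound pinned in; FRET-FV substrate; RT 20 min; Ex320/Em430; ΔFRET vs ADEP 5.8 microM, DMSO, no enzyme.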
# TRPML1 ag: agonists of human TRPML1 channel. TRPML1-expressing cells, Ca2+ dye fluorescence, FDSS; host cell line not named in the record; reference of the full effect not given here. Q9GZU1. 410,000 tested, 0.12% active. AID 624414. activation, % (no concentration beside the values); in the data active = activation above about 50%; inconclusive = about 30% to 50%; inactive = below about 30%; also: 0% is about no effect; the text of the record puts the active cut at 80%
#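 Agonist activity was taken from a 110 s kinetic Ca2+ dye read on the FDSS after pinning compounds onto TRPML1-DL cells. The cells were seeded at 1,500/well with Tet inducer, incubated about 16 h, then dye-loaded at room temperature.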
# Menin-MLL FL inh: menin-MLL binding inhibition, fluorescein peptide; 290,000 tested, under 10 active; FP activity change, % at 61.4 µM; Fluorescence polarization, fluorescein-MLL peptide displacement from menin; AID 1766; inconclusive = falling polarisation curve, or a change in total fluorescence; inactive = total fluorescence flat and polarisation flat or rising; no compound was filed as active; the % refers to the polarisation; negative = inhibition;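 also: % of control where 0% means no effect; inhibitors lower the polarisation; unlabelled MLL peptide was the positive control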
# An asterisk follows results filed as active; ? = inconclusive; . = not tested or not shown; [ ] = dose if it differs, or a comment. Hits appear at their usual frequency. About 2.1% of those tested had a hit in this group.
SMILES,gsp antagonist,gsp ag,TRPML1 inh,ClpP mod,TRPML1 ag,Menin-MLL FL inh
COc1cc(NC(=O)c2cc(S(=O)(=O)N3CCC(C)CC3)cn2C)cc(OC)c1OC,.,.,-2.6,51.7%,1.8,.
Cc1cc(C(=O)OCC(=O)c2ccc3c(c2)OCCO3)c(C)o1,-6.0%,16.9%,-3.6,-1.8%,-1.3,4.5
CCOC(=O)c1ccc(NC(=O)c2nc[nH]c2C(=O)N2CCN(c3ccccc3)CC2)cc1,-22.9%,.,28.2,68.7%,1.2,5.2
CCCCCc1cc(=O)oc2c(C(CCN3CCCC3)c3cc(OC)c(OC)c(OC)c3)c(OC)cc(OC)c12 (centres undefined),8.3%,-17.0%,50.7,-12.9%,-0.8,0.4
COc1ccc(CC(=O)Nc2cccc(-c3nnc(-c4ccc(C)cc4)o3)c2)cc1OC,?,12.8%,4.6,-4.6%,2.0,7.2
O=C(NCC1CCCO1)c1cccc(NC(=O)c2ccccc2)c1 (centres undefined),-16.1%,?,-15.1,-1.4%,0.9,.
O=C(NNC(=S)NC1CCCCC1)c1ccccc1Cl,-0.6%,-55.3%[inhibitor],-3.4,.,-0.5,-2.8
COC(=O)c1ccc(N2CCN(CC(=O)c3ccc(-c4ccccc4)cc3)CC2)c([N+](=O)[O-])c1,-13.0%,-30.4%[inhibitor],11.9,-13.2%,-0.6,0.7
O=C(COC(=O)C1(c2cccc(F)c2)CCCC1)NCc1cccs1,-2.1%,18.7%,9.3,-1.2%,1.0,0.3
CCOC(=O)N1CCC(NCCNC(=O)c2ccco2)CC1,10.7%,-40.9%[inhibitor],33.7,0.1%,1.2,4.4
O=C(Nc1cc2c(cc1C(=O)c1ccccc1)OCCO2)c1ccc(Br)cc1,.,.,-17.9,1.7%,-0.2,.
CCCCOc1ccc(CNC(=O)C2CCN(c3nnc(-n4cccc4CNc4ccc(C)cc4)s3)CC2)cc1,.,.,6.9,-2.1%,-0.1,.
Cc1ccc(C(=O)c2cn(CC(=O)NC3CCCCC3)c3nc(C)ccc3c2=O)cc1,.,.,-8.9,-2.5%,0.5,.
Cc1ccc(-c2nc3ncccn3c2Nc2ccc3c(c2)OCCO3)o1,-15.6%,25.4%,9.5,-1.2%,0.9,-1.1
Cc1nn(C)cc1/C=N/NC(=O)Cn1nccc1C,12.0%,8.6%[15.4 µM],-12.9,-6.8%,0.7,.
COc1ccc(NS(=O)(=O)c2cc(C(=O)NNC(=O)c3ccncc3)ccc2OC)c(OC)c1,5.1%,13.5%,-0.4,.,-0.3,.
CC1=CC(C)(C)N(C(=O)CNC2CCCC2)c2cc(C)ccc21,7.7%,-16.6%,16.9,2.5%,1.5,-3.8
COc1ccccc1NC(=O)CCC(=O)Nc1nnc(C2CCCCC2)s1,1.4%,32.5%,-15.2,2.4%,-0.2,.
O=C(Nc1ccccc1)N1CCCCC1c1cccnc1 (centres undefined),12.0%,13.8%,1.5,-2.2%,0.1,-1.3
O=C(/C=C\Nc1ccc2c(c1)OCO2)c1ccc2c(c1)OCO2,-28.7%,-6.9%[15.4 µM],16.3,.,0.3,?
COCc1c(C(=O)OCC(=O)c2ccc[nH]2)oc2ccccc12,-0.4%,-21.0%,6.1,.,-0.9,.
Fc1cc(Cl)ccc1NC1=NCCCCC1,9.8%,?,-1.7,.,-1.0,2.0
O=C(/C=C/c1ccccc1[N+](=O)[O-])N1CCc2ccccc2C1,-10.8%,?,-0.1,.,0.0,0.2
Cc1ccc(OCC(=O)Nc2nnc(C3CCCO3)s2)c(Br)c1 (centres undefined),-9.5%,-2.6%[15.4 µM],60.5,.,1.3,0.6
Fc1cccc(NC(=S)NCCCN2CCOCC2)c1,11.3%,2.9%,-8.5,-1.3%,-0.9,1.6
NC(=O)C1CCN(C(=O)/C(=C/c2ccco2)NC(=O)c2ccccc2)CC1,.,-4.9%[15.4 µM],-1.6,.,0.0,?
CC(Sc1sc(=S)sc1SC(C)C(=O)O)C(=O)O (centres undefined),5.0%,3.2%,-2.5,-0.4%,3.0,0.9
O=c1c2cc3c(cc2n(Cc2cccc(F)c2)c(=O)n1Cc1nc(-c2ccccc2)no1)OCO3,.,.,-12.3,-9.8%,2.8,.
Cc1cccc(-c2nnc(SCC(=O)Nc3cccc(C(=O)N4CCOCC4)c3)n2C)c1,5.0%,17.3%[15.4 µM],-6.7,-1.6%,-0.8,0.1
CCC(CC)C(=O)N1CC(=O)Nc2ccc(C)cc2C1c1ccccc1 (centres undefined),?,?,12.1,-1.2%,2.0,1.8
CC(C)(C)NC(=O)Cn1ccc(=N)c2ccccc21,0.6%,-2.4%,16.6,?,-0.8,0.7
C/C(CC(=O)Nc1ccc(Cl)c(C(F)(F)F)c1)=N\NC(=O)c1cnccn1,-6.8%,-9.6%,8.3,0.2%,0.1,-0.3
COc1ccc(N2C(=NC(=O)C3CC3)SC3CS(=O)(=O)CC32)cc1Cl (centres undefined),-4.2%,-178.4%[inhibitor],-7.0,-0.1%,0.6,-1.6
COc1ccc(CNC(=O)Cc2csc(NC(=O)Nc3ccccc3OC)n2)cc1,-27.6%,-8.2%,11.4,-1.4%,-0.7,.
Cc1ccc(NC(=O)CCC(=O)NNC(=O)c2ccccc2)c(C)c1,10.4%,-8.3%,-7.7,.,2.6,-0.8
CCOC(=O)c1ccc(NC(=O)c2ccc(C)c(S(=O)(=O)N3CCOCC3)c2)cc1,28.2µM*,0.4%,-4.0,1.5%,0.7,4.2
CCOc1ccc(-c2cc(N3C(=O)Nc4ccccc4N3O)n[nH]2)cc1,4.4%,-12.0%[15.4 µM],-3.9,.,0.9,-2.6
CCCn1nc(C(=O)N2CC(=O)Nc3ccccc32)c2ccccc2c1=O,6.1%,-13.0%,-3.5,-2.6%,-0.2,2.5
CCOc1ccccc1N(CC(=O)Nc1ccc2c(c1)OCCO2)S(C)(=O)=O,5.8%,17.2%,-7.3,1.0%,0.6,1.0
Cn1cccc1C(=O)OCC(=O)Nc1ccc2[nH]c(=O)[nH]c2c1,13.7%,-42.2%[inhibitor],13.0,-0.4%,-0.3,.
CC(C)NC(=O)C1CCCN(c2nnc(-n3cccc3)s2)C1 (centres undefined),-0.6%,-2.3%,-4.6,-0.6%,-0.1,1.7
CCOc1cc(N2CCOCC2)c(OCC)cc1NC(=O)CSc1nnc(N)s1,-14.0%,20.7%,31.8,.,0.2,.
COc1ccccc1NC(=O)c1c(NC(=O)c2ccccc2Cl)sc2c1CCC2,.,.,-7.8,-5.2%,2.2,.
CC(Sc1nnc(Cn2c(=O)sc3ccccc32)n1C)c1ccccc1 (centres undefined),2.6%,-77.8%[inhibitor],74.9,-1.8%,0.3,0.5
COC(=O)C[C@H]1C[C@H]2c3cc(NC(=O)CC4CC4)ccc3O[C@H]2[C@H](CO)O1,.,12.9%,-13.1,1.8%,0.1,.
CC(C)N(C)CCOC(=O)/C=C/c1ccccc1,3.2%,1.7%,2.6,-2.7%,0.5,1.7
Cc1cc(C)cc(N(CC(=O)NC2CCCC2)C(=O)CCC(=O)Nc2nc(C)cs2)c1,-21.8%,-4.1%[15.4 µM],-7.6,.,2.9,.
COCOCCn1cc(CN2CCS(=O)(=O)N(Cc3ccc(-c4ccc(Cl)cc4)cc3)C(CC(C)C)C2=O)nn1 (centres undefined),.,-1.3%,10.4,-0.4%,-0.1,.
COc1cc(NC(=O)C2CCCN(S(=O)(=O)c3ccc4c(c3)CCCC(=O)N4)C2)cc(OC)c1 (centres undefined),.,.,-10.3,1.8%,4.5,.
O=C1CCNc2ccc(-c3ccccc3)cc21,0.0%,?,-3.7,-16.0%,6.7,?
C/C(CC(=O)Nc1ccc2c(c1)OCCO2)=N\NC(=O)c1ccccn1,9.3%,6.5%,10.4,1.3%,3.2,-1.6
N#C/C(=C\c1ccc2c(c1)OCCO2)C(=O)Nc1nccs1,-7.6%,5.9%[15.4 µM],8.1,.,1.2,3.6
COc1ccc(C(=O)N2CCCC(C(=O)N3CCN(c4ccccc4)CC3)C2)cc1 (centres undefined),-13.6%,-0.8%[15.4 µM],-2.0,0.5%,0.0,-0.6
Oc1ccc(/C=N/N2CCCCC2)c(O)c1O,-16.3%,9.8%[15.4 µM],6.9,.,0.2,?
O=C1CCCC(O)=C1N=Nc1ccc(S(=O)(=O)N2CCOCC2)cc1,0.5%,-10.3%,-4.8,-1.1%,0.5,-1.5
CC(=O)c1sc(NC(=O)C2CSC3(C)CCC(=O)N23)nc1-c1ccccc1 (centres undefined),-5.1%,?,67.8,-1.2%,-0.2,.
Cn1c(=O)c2c(nc(Cl)n2Cc2ccncc2)n(C)c1=O,-1.7%,1.6%,-3.2,-2.2%,0.4,0.4
COc1ccccc1CNC(=O)CC1Sc2ccccc2NC1=O (centres undefined),4.1%,-10.9%[15.4 µM],-21.2,.,-0.1,-0.7
COc1ccc(CNC(=O)Cc2coc3ccc(C)cc23)cc1,.,.,-3.2,-4.1%,2.7,.
Cc1ccc2c(c1)nnn2C1CCN(C(=O)c2ccccc2F)CC1,-2.0%,-49.0%[inhibitor],-26.7,-0.5%,0.7,8.2
# Next entries follow:
SMILES,gsp antagonist,gsp ag,TRPML1 inh,ClpP mod,TRPML1 ag,Menin-MLL FL inh
COCCN1C(=O)c2ccccc2C(C(=O)NCCCN2CCCC2=O)C1c1c[nH]c2ccccc12 (centres undefined),0.2%,-37.2%[inhibitor],16.0,-2.3%,1.0,1.9
O=C(COC(=O)c1c2c(nc3ccccc13)/C(=C\c1ccco1)CC2)NC1CCCC1,-17.4%,?,-4.9,-2.9%,4.3,.
Cc1ccc(CN2C(=O)C(C)Oc3ccccc32)cc1 (centres undefined),-4.6%,-45.6%[inhibitor],12.9,0.5%,2.4,-2.6
COc1cccc(-c2ccc(NC(=O)C3CCCN(Cc4cc(C)[nH]n4)C3)cc2)c1 (centres undefined),-0.3%,0.3%[15.4 µM],6.8,1.3%,-0.5,-0.2
COc1ccc(C2=NOC(C(=O)Nc3ccc4c(c3)OCO4)C2)cc1 (centres undefined),-1.0%,21.9%,.,-0.7%,.,-5.4
CC(C)(C)c1ccc2c(c1)N(CC(=O)N1CCOCC1)C(=O)CO2,-3.9%,3.5%,2.3,-2.3%,0.8,.
CCOc1ccc(OCCCC(=O)NCCOc2ccccc2OC)cc1,0.2%,-4.4%,11.6,-1.5%,-0.3,.
Cc1ccc(OCC(=O)N2CCN(C(=O)c3ccco3)CC2)cc1,12.5%,8.9%[15.4 µM],6.2,0.6%,-0.7,-1.2
O=c1cnnc(Nc2cccc(C(F)(F)F)c2)[nH]1,-7.0%,-34.0%,-9.2,.,-0.2,1.1
